Screening results from PubChem.
LANA-H2B inh: blocks KSHV LANA binding to histone H2A/H2B | inhibition, % (concentration not given with the values) | cell-free LANA-H2A/H2B peptide, fluorescence polarization | Q9QR71 | actives 0.6% (n = 320,000) | AID 2629; in the data active means inhibition mostly above about 10%, no sharp cut-off; inactive means mostly below about 6.7%;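 further: stock transfer was 7.5 nL into about 10 µL; 0% = median of vehicle wells and 100% = median of positive control wells; one replicate is shown; the record names a cut of 25% in any replicate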
Target sequence (Q9QR71 whole entry, looked up): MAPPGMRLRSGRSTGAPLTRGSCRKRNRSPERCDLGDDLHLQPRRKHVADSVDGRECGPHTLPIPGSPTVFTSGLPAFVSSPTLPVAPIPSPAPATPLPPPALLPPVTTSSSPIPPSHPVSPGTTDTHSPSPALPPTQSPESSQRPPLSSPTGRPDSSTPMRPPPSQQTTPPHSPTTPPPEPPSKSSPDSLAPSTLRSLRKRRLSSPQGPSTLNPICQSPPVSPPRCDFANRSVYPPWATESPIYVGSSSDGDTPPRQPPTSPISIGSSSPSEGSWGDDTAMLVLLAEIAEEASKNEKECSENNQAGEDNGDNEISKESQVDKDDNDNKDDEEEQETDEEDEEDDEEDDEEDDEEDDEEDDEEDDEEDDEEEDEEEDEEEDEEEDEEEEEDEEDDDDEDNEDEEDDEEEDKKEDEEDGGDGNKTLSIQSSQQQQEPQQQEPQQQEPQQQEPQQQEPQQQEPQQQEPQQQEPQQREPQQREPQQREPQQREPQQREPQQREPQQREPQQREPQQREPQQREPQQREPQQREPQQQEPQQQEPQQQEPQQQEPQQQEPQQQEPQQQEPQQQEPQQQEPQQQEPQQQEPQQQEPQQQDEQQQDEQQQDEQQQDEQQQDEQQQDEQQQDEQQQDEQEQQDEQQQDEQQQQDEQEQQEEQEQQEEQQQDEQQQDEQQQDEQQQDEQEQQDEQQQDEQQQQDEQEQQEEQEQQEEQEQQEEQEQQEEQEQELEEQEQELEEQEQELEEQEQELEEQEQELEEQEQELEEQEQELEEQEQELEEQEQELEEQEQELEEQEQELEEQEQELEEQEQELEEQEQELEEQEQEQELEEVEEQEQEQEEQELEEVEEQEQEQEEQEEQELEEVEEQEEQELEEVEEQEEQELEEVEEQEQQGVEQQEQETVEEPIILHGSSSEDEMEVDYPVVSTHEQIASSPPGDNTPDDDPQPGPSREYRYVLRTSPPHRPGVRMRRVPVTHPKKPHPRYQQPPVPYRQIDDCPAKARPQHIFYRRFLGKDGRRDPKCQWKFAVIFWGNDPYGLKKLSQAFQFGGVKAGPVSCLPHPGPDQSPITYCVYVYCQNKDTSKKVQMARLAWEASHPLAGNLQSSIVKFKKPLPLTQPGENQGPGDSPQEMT
Vif TR-FRET: inhibitors of Vif binding to APOBEC3G peptide, primary screen, biochemical, TR-FRET, GST-Vif 1-94, biotin-A3G peptide, dose response retest (AID 1117319); TR-FRET GST-Vif / biotin-A3G peptide binding; higher % means a stronger effect; test concentration not given here; strong numbers were not always called active; one-dose inhibition, %; IC50 in µM for titrated hits; actives 0.57% (n = 260,000);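 active means above the screen mean plus three standard deviations and confirmed in dose response; inconclusive means results disagree or hit not tested in dose response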;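 further: Vif residues 1-94 fused to GST binding biotinylated APOBEC3G peptide 110-148; 0% = full assay without inhibitor and 100% = GST in place of GST-Vif; retest series ran down from 100 µM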
Calb FLC: C. albicans growth modulation with fluconazole | C. albicans CaCi-2 (fluconazole-resistant clinical isolate) + fluconazole, Alamar Blue growth, 48 h | growth inhibition, % (no concentration beside the values) | actives 0.57% (n = 300,000);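 active means most replicates above 75%; inconclusive means exactly half above 75%; inactive means most below 75%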;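 further: all wells also contain fluconazole at 8 µg/ml as a sub-toxic cotreatment; 0% = median of DMSO wells and 100% = median of geldanamycin control wells; wells of about 8 µL received 7.5 nL stock; the first replicate is given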
HNF4A DNA FP: change in binding of human HNF4 alpha to DNA; HNF4a-FITC DNA binding, fluorescence polarization, 1 h; activity change, % at 10 µM; actives 0.3% (n = 360,000); AID 1224865; in the data active means activity change above about 30%, passing the limit was not always enough;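 further: controls were the assay level and a saturating level of protein; the project sought stronger binding though the title names inhibitors; some compounds called inactive have numbers as strong as hits; positive values seem to mean higher polarization but the record does not say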
ALR inh: inhibitors of human sulfhydryl oxidase ALR; purified ALR, DTT oxidation, H2O2 HRP-luminol luminescence; inhibition, % (test concentration not listed); actives 3.8% (n = 290,000); AID 485317;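 active means mean and each replicate at 75% or more; inconclusive means only one of the two met; inactive means neither met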;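 further: stock transfer was 7.5 nL into about 7.5 µL; 0% = neutral wells and 100% = wells with inactivated enzyme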
B2AR ag: human beta-2 adrenergic receptor agonism by FAP; Am2.2-beta2AR cells, FAP receptor internalization, flow cytometry; reference of the scale not given here; response, % (no concentration beside the values); actives 0.43% (n = 340,000);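 active means response above a set limit, near 3 SD of response in nonfluorescent compounds, cut at about 42% in these data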;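 further: stock transfer was 100 nL into about 11 µL; a reference agonist was the positive control; negative values mostly stem from fluorescent compounds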
RanGTP-Impb inh: disruptors of Ran-importin-beta complex formation – biochemical, FRET, CFP-Ran, YFP-importin-beta, homogeneous, primary screen; actives 1.1% (n = 300,000); AID 2216; inhibition, % (concentration not given with the values); cell-free CFP-Ran/YFP-importin-beta FRET ratio;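 active means most replicates above 15%; inconclusive means exactly half above 15%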;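 further: 0% = DMSO wells and 100% = Ran loaded with GDP instead of GTP; wells of about 40 µL received 100 nL stock; the first replicate is given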
* hit, by the source's call.

What do the screens show for `COc1ccc(-c2c(C)n([O-])c(C)c(C)[n+]2=O)cc1OC`?
LANA-H2B inh: 0.4; Vif TR-FRET: -5%; Calb FLC: -3; HNF4A DNA FP: 2.4; ALR inh: -4; B2AR ag: -7; RanGTP-Impb inh: 0.0

Results for O=S(=O)(Nc1ccc2ccccc2n1)c1ccccc1 ?
LANA-H2B inh: 4.7; Calb FLC: -1; HNF4A DNA FP: 2.6; ALR inh: -5; B2AR ag: -1; RanGTP-Impb inh: 6.9

Results for CC(NC(=O)c1ccc(OC2CCN(Cc3ccccn3)CC2)cc1)c1nccs1 (centres undefined) ?
LANA-H2B inh: 0.8; Calb FLC: -13; HNF4A DNA FP: 1.0; ALR inh: -3; B2AR ag: -10; RanGTP-Impb inh: -0.4

Results for Cc1ccc(OC2CCN(C(=O)C3CCC(=O)N(C4CC4)C3)CC2)cc1 (centres undefined) ?
LANA-H2B inh: 0.8; Calb FLC: 4; HNF4A DNA FP: -2.3; ALR inh: -2; B2AR ag: -4; RanGTP-Impb inh: 0.5

Results for CC(C)(C)C(=O)NC(Nc1cccc2cccnc12)C(Cl)(Cl)Cl (centres undefined) ?
LANA-H2B inh: -1.3; Vif TR-FRET: 3%; Calb FLC: -10; HNF4A DNA FP: 0.8; ALR inh: -16; B2AR ag: 1; RanGTP-Impb inh: 0.0

How did CCOC(=O)C1C(=O)NC(N2CCN(c3ccccc3)CC2)=NC1c1ccccc1 (centres undefined) do in these assays?
LANA-H2B inh: -0.5; Vif TR-FRET: 2%; Calb FLC: 10; HNF4A DNA FP: 2.4; ALR inh: 39; B2AR ag: 3; RanGTP-Impb inh: -6.8

What do the screens show for `O=C(c1cccc(S(=O)(=O)NCc2ccccc2)c1)N1CCCC(C(F)(F)F)C1` (centres undefined)?
LANA-H2B inh: 4.6; Vif TR-FRET: -14%; Calb FLC: -5; HNF4A DNA FP: 2.7; ALR inh: -14; B2AR ag: -3; RanGTP-Impb inh: 2.7

How did C=CCOc1ccc(/C=N/NC(=O)C2CCCC2)cc1OCC do in these assays?
LANA-H2B inh: -5.1; Vif TR-FRET: -4%; Calb FLC: 45; HNF4A DNA FP: 4.0; ALR inh: -18; B2AR ag: 1; RanGTP-Impb inh: 4.2

Results for CCCCC(=Nc1ccc(N)cc1)C1=C(O)C(C(=O)OC)C(C)(C)CC1=O (centres undefined) ?
LANA-H2B inh: -0.8; Vif TR-FRET: inconclusive; Calb FLC: -6; HNF4A DNA FP: -4.5; ALR inh: 9; B2AR ag: -3; RanGTP-Impb inh: -3.8

How did Cc1cc2nccc(-c3ccc(Cl)cc3Cl)n2n1 do in these assays?
LANA-H2B inh: 1.6; Vif TR-FRET: -3%; Calb FLC: 1; HNF4A DNA FP: -2.4; ALR inh: 16; B2AR ag: -5; RanGTP-Impb inh: inconclusive

How did Cn1cc(-c2ccno2)c(C(=O)O)n1 do in these assays?
LANA-H2B inh: -4.3; Vif TR-FRET: -6%; Calb FLC: 6; HNF4A DNA FP: 1.3; ALR inh: 0; B2AR ag: -4; RanGTP-Impb inh: -3.4

What do the screens show for `CCCc1nc(SCC(=O)Nc2ccc(S(=O)(=O)N(C)C)cc2)c2ccccc2n1`?
LANA-H2B inh: inactive; Vif TR-FRET: -26%; Calb FLC: -3; HNF4A DNA FP: 1.6; ALR inh: -6; B2AR ag: -5; RanGTP-Impb inh: 1.0

How did CCn1c(-c2cc3ccccc3cc2O)n[nH]c1=S do in these assays?
LANA-H2B inh: 2.3; Vif TR-FRET: 9%; Calb FLC: 12; HNF4A DNA FP: 2.0; ALR inh: 99*; B2AR ag: -1; RanGTP-Impb inh: 1.2

How did NC(=S)NN=C1c2cc(Cl)ccc2-c2c1cc(Cl)cc2[N+](=O)[O-] do in these assays?
Vif TR-FRET: 1%; HNF4A DNA FP: -2.2; B2AR ag: 20

Results for O=C(COC(=O)c1ccc(F)cc1F)c1ccc[nH]1 ?
Vif TR-FRET: -3%; HNF4A DNA FP: -0.2; B2AR ag: 7

What do the screens show for `Cc1onc(-c2c(F)cccc2Cl)c1C(=O)N1CCN(c2ncccn2)CC1`?
LANA-H2B inh: -0.8; Vif TR-FRET: 6%; Calb FLC: 24; HNF4A DNA FP: -2.3; ALR inh: -1; B2AR ag: -4; RanGTP-Impb inh: -5.5

What do the screens show for `CC(=O)c1cccc(NC(=O)C2=CC(c3ccc4c(c3)OCO4)=NS(=O)(=O)N2C)c1`?
LANA-H2B inh: -1.6; Calb FLC: -5; HNF4A DNA FP: -2.6; ALR inh: 4; B2AR ag: -8; RanGTP-Impb inh: -1.3

What do the screens show for `Cc1ccccc1NC(=O)/C(C#N)=C/c1ccccc1C(F)(F)F`?
LANA-H2B inh: 3.9; Calb FLC: inconclusive; HNF4A DNA FP: 1.3; ALR inh: inconclusive; B2AR ag: 15; RanGTP-Impb inh: -0.2

Results for CCOCc1nnc(NC(=O)c2cc(Cl)ccc2OC)s1 ?
LANA-H2B inh: 2.1; Vif TR-FRET: 5%; Calb FLC: 3; HNF4A DNA FP: 2.8; ALR inh: -15; B2AR ag: -11; RanGTP-Impb inh: -3.9

What do the screens show for `COc1cccc(OC)c1C(=O)OCc1c(-c2ccccc2)ncc2ccccc12`?
LANA-H2B inh: 0.4; HNF4A DNA FP: -2.9; ALR inh: -2; B2AR ag: 8

How did COC(=O)c1ccc(COc2ncnc3c(Cl)cc(Cl)cc23)o1 do in these assays?
LANA-H2B inh: -1.1; Vif TR-FRET: 3%; Calb FLC: -3; HNF4A DNA FP: 1.5; ALR inh: 22; B2AR ag: -6; RanGTP-Impb inh: 4.7

What do the screens show for `CC1CCN(CC(=O)Nc2ccc(S(=O)(=O)N3C(C)CCCC3C)cc2)CC1` (centres undefined)?
LANA-H2B inh: 9.4; Vif TR-FRET: 2%; Calb FLC: 14; HNF4A DNA FP: 0.7; B2AR ag: -4; RanGTP-Impb inh: 1.4

Results for O=P(O)(CN1CCCCCC1)C1Cc2ccccc2C1 ?
LANA-H2B inh: -1.4; Calb FLC: 5; ALR inh: -30; RanGTP-Impb inh: 3.2

How did Cc1cc2cc(C(c3nnnn3Cc3ccccc3)N3CCc4ccccc43)c(=O)[nH]c2cc1C (centres undefined) do in these assays?
LANA-H2B inh: -2.2; Vif TR-FRET: -48%; Calb FLC: inconclusive; HNF4A DNA FP: 0.2; ALR inh: -32; B2AR ag: -7; RanGTP-Impb inh: 5.0

Results for CC(C)(c1cc(Br)c(O)c(Br)c1)c1cc(Br)c(O)c(Br)c1 ?
LANA-H2B inh: 3.2; HNF4A DNA FP: -3.6; ALR inh: 52; B2AR ag: -2

Results for CC(C)(C)n1nc2c(c1NC(=O)COc1ccc(Cl)cc1)CSC2 ?
LANA-H2B inh: -4.7; Vif TR-FRET: 8%; Calb FLC: 1; HNF4A DNA FP: -1.6; ALR inh: 2; B2AR ag: 1; RanGTP-Impb inh: 0.9

What do the screens show for `Cc1cc(S(=O)(=O)N(Cc2ccccn2)Cc2ccco2)ccc1-n1cnnn1`?
LANA-H2B inh: 0.6; Vif TR-FRET: 84µM*; Calb FLC: -21; HNF4A DNA FP: 0.4; ALR inh: -6; B2AR ag: 3; RanGTP-Impb inh: 5.3

Results for CC1CCCCN1C(=S)Nc1ccc(OC(F)F)cc1 (centres undefined) ?
LANA-H2B inh: -2.5; Calb FLC: -5; HNF4A DNA FP: -2.7; ALR inh: -3; B2AR ag: 6; RanGTP-Impb inh: 3.2

How did O/N=C/c1nc2cc(Cl)ccc2o1 do in these assays?
LANA-H2B inh: 0.3; Vif TR-FRET: 4%; Calb FLC: -12; HNF4A DNA FP: -0.2; ALR inh: -16; B2AR ag: 11; RanGTP-Impb inh: -0.1

What do the screens show for `O=C(Cn1nc(C(F)(F)F)c2c1CCC2)NCc1ccc(Cl)cc1`?
LANA-H2B inh: 0.1; Vif TR-FRET: 3%; Calb FLC: 21; HNF4A DNA FP: -0.2; ALR inh: -2; B2AR ag: -1; RanGTP-Impb inh: 1.1

How did CCC1CCC(C(=O)NC(C(=O)NCCc2ccc(S(N)(=O)=O)cc2)C(C)C)CC1 (centres undefined) do in these assays?
LANA-H2B inh: 0.1; Vif TR-FRET: -5%; Calb FLC: 2; HNF4A DNA FP: -2.6; ALR inh: 0; B2AR ag: 34; RanGTP-Impb inh: 1.0

What do the screens show for `Cc1nnc(N(Cc2ccco2)C(=O)c2ccc(C#N)cc2)s1`?
LANA-H2B inh: -2.2; Vif TR-FRET: inconclusive; Calb FLC: -8; HNF4A DNA FP: 1.8; ALR inh: 6; B2AR ag: -4; RanGTP-Impb inh: -1.9

Results for Cc1ccc(N2CC(C(=O)Nc3ccc(S(=O)(=O)N4CCOCC4)cc3)CC2=O)cc1 (centres undefined) ?
LANA-H2B inh: -3.3; Vif TR-FRET: 7%; Calb FLC: -12; HNF4A DNA FP: 2.6; ALR inh: -8; B2AR ag: 2; RanGTP-Impb inh: 0.9

How did COc1ccc(NS(=O)(=O)c2ccc(C)c(NC(=O)CNC(=O)c3ccco3)c2)cc1 do in these assays?
Vif TR-FRET: -6%; HNF4A DNA FP: -1.5; B2AR ag: -2

What do the screens show for `COc1ccc(OC)c(/C=N/NC(=O)CNC(=O)c2ccc(S(=O)(=O)N3CCCC3)cc2)c1`?
LANA-H2B inh: -1.7; Vif TR-FRET: -6%; Calb FLC: -11; HNF4A DNA FP: -2.9; ALR inh: -2; B2AR ag: 3; RanGTP-Impb inh: 1.2

How did CC(C)(O[C@@H]1O[C@H](CO)[C@@H](O)[C@H](O)[C@H]1O)[C@H]1Cc2cc3ccc(=O)oc3cc2O1 do in these assays?
LANA-H2B inh: 5.2; Calb FLC: 3; HNF4A DNA FP: 8.0; ALR inh: -10; B2AR ag: -1; RanGTP-Impb inh: -0.5

Gathered by group, the entries above with an NH in an aromatic ring (3)
How did CCn1c(-c2cc3ccccc3cc2O)n[nH]c1=S do in these assays?
LANA-H2B inh: 2.3; Vif TR-FRET: 9%; Calb FLC: 12; HNF4A DNA FP: 2.0; ALR inh: 99*; B2AR ag: -1; RanGTP-Impb inh: 1.2

Results for O=C(COC(=O)c1ccc(F)cc1F)c1ccc[nH]1 ?
Vif TR-FRET: -3%; HNF4A DNA FP: -0.2; B2AR ag: 7

How did Cc1cc2cc(C(c3nnnn3Cc3ccccc3)N3CCc4ccccc43)c(=O)[nH]c2cc1C (centres undefined) do in these assays?
LANA-H2B inh: -2.2; Vif TR-FRET: -48%; Calb FLC: inconclusive; HNF4A DNA FP: 0.2; ALR inh: -32; B2AR ag: -7; RanGTP-Impb inh: 5.0

Next results follow:
How did Cc1nn(C)c(C(=O)Nc2c(C)nn(Cc3c(F)c(F)c(F)c(F)c3F)c2C)c1Br do in these assays?
LANA-H2B inh: 3.6; Calb FLC: -2; HNF4A DNA FP: -2.8; ALR inh: -6; B2AR ag: 6

How did N=C1C(=O)OCC1c1ccccc1NC(=O)CN1CCOCC1 (centres undefined) do in these assays?
LANA-H2B inh: 4.3; Vif TR-FRET: -4%; Calb FLC: -2; HNF4A DNA FP: -1.5; ALR inh: 1; B2AR ag: -7; RanGTP-Impb inh: 41*

What do the screens show for `CC(C(=O)NCCSCc1cccc(Cl)c1)N(c1ccccc1)S(C)(=O)=O` (centres undefined)?
LANA-H2B inh: -2.8; Vif TR-FRET: 7%; Calb FLC: 18; HNF4A DNA FP: 2.1; ALR inh: -48; B2AR ag: 3; RanGTP-Impb inh: -2.4

What do the screens show for `Cc1cc(NC(=O)CCC(=O)N(Cc2ccco2)C(C(=O)NC2CCCC2)c2ccc(F)cc2)no1` (centres undefined)?
LANA-H2B inh: 12; Calb FLC: 22; HNF4A DNA FP: -0.8; B2AR ag: 2; RanGTP-Impb inh: 4.6
